# Source: PubChem (ICCB-Longwood Screening Facility, Harvard Medical School)
# Mtb MbtI inh = MbtI salicylate synthase inhibition; P9WFX0; purified MbtI enzyme, fluorescence intensity read-out; inhibition, %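 (about 17 µg/mL by stock and volumes)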; actives 0.89% (n = 100,000); AID 493033;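 active = above 50% in both replicates, above 80% if mildly self-fluorescent; inactive = the rest, strongly fluorescent compounds included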;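 also: 0% = mean of negative and 100% = mean of positive controls; one replicate is shown; some compounds called inactive have numbers as strong as hits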
# Polio RdRp inh = inhibitors of poliovirus RNA polymerase binding and polymerization; % elongation, % (compound at 16.7 µg/mL); poliovirus polymerase elongation, fluorescence polarization; hits give low values; P03300; actives 0.66% (n = 150,000); in the data active = % elongation below about 90%; also: some results filed as inactive read as strong as hits
# Target sequence (P03300 1749-2209 limits assumed): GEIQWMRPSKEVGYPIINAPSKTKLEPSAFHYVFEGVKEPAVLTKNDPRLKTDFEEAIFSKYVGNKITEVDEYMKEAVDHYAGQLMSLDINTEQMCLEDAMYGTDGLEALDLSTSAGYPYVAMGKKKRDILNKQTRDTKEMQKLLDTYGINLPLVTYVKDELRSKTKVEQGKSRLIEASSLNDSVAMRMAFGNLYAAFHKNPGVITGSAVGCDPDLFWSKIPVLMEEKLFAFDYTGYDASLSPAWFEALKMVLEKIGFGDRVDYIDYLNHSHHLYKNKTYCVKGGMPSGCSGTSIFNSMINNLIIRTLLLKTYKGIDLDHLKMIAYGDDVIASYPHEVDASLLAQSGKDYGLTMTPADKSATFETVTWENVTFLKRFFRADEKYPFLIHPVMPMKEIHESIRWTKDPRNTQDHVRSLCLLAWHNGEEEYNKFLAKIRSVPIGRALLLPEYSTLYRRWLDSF
# MenB inh = inhibitors of Mycobacterium tuberculosis MenB enzyme | P9WNP5 | MenB enzyme assay, absorbance read-out; some hits fall short of the stated cut | inhibition, %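 (about 12 µg/mL by stock and volumes)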 | actives 0.43% (n = 100,000) | AID 540299;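 active = mean of two replicates above 30%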;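 also: 0% = no compound and 100% = wells with inactive enzyme; the first replicate is given; strong numbers were not always called active; inactives centre near -10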
# Target sequence (P9WNP5 whole entry, looked up): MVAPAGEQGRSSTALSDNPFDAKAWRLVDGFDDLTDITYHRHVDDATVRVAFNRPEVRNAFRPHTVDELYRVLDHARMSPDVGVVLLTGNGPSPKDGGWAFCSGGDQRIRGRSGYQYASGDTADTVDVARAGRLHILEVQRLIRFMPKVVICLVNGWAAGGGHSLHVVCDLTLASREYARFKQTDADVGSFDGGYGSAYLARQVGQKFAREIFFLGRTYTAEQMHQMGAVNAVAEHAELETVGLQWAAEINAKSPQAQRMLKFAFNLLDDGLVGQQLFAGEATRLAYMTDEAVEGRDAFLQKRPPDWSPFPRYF
# Polio RdRp inh intensity = also measured in Polio RdRp inh; calls as there; % elongation; measured here: total intensity read-out; formula for this scale not given here;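 total fluorescence in place of polarization; lower means less elongation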
# Active calls of the source: *; . = no result given; & = joins results of further samples.
SMILES,Mtb MbtI inh,Polio RdRp inh,Polio RdRp inh intensity,MenB inh
COc1ccc2[nH]c(=O)c(CN(Cc3cccs3)S(=O)(=O)c3cccc4nsnc34)cc2c1,-6,103,99,-47
c1ccc(-c2nnc(SCC3CCOCO3)n2-c2ccccc2)cc1 (configuration not stated),.,104,88,-12
C=C(C)CSc1nc2c(c(=O)n1-c1ccccc1)CC1=C(CC(C)(CC)OC1)N2 (configuration not stated),22,101,96,3
CS(=O)(=O)N1CCN(C(=O)CSc2ccccc2)CC1,-4,101,98,-29
CC(=O)NC1CCN(C(=O)Nc2ccccc2)CC1,-2,102,100,-34
CCCN(CCC)C(=O)c1ccc2c(Cl)c3c(nc2c1)CCCC3,-2,101,102,-16
Cc1c(CC(C)C)nc(C#N)c(N)c1-c1ccccc1,.,106,108,-21
CCOC(=O)C1(Nc2nccs2)Sc2ccccc2NC1=O (configuration not stated),9,104,106,-19
O=C(O)/C=C/C1=Cc2ccccc2OC1,-57,98,95,1
O=C(CN(Cc1ccco1)C(=O)Cc1c(F)cccc1Cl)Nc1ccccc1Br,5,105,107,-19
C=CCn1c(NCc2cn(-c3ccccc3)nc2-c2cccs2)nc2ccccc21,0,105,103,-35
Cc1nc(C)n(CC(O)COc2ccc3c4c(c(=O)oc3c2)CCC4)n1 (configuration not stated),90,100,101,-2
CCS(=O)(=O)c1ncc(Cl)c(C(=O)Nc2ccc(Cl)cc2)n1,63*,103,102,-14
OC(Cc1ccccc1)(c1ccccc1)C1CN2CCC1CC2 (configuration not stated),-4,101,99,-9
CCc1ccccc1NC(=S)N1CCC(N(C)C(C)C)CC1,-7,100,102,-26
CCOc1ccc(NC(=O)NN2C(C)CCCC2C)cc1 (configuration not stated),2,105,104,-1
CCOC(=O)Cn1c(-c2cccs2)cc2ccccc21,100,103,105,-11
CCN(CC(=O)NC1CCS(=O)(=O)C1)Cc1nc2sc3c(c2c(=O)[nH]1)CCC3 (configuration not stated),12,125,134,-20
CCCNC(=O)Cn1nc(C(F)(F)F)c(Br)c1C,9,103,106,-5
CN(C)/C=N/c1nc(-c2ccc3ccccc3c2)cs1,9,103,100,-8
OCc1cn(Cn2cc(CO)c(-c3ccccc3)n2)nc1-c1ccccc1,-6,102,102,.
O=C1c2ccc3c4c(ccc(c24)C(=O)N1c1nccs1)C(=O)N(c1nccs1)C3=O,-11,100,104,-48
N#CC(C#N)=CNc1ccc2oc3ncccc3c(=O)c2c1,49,105,105,-25
CC(=O)N1c2ccc(S(=O)(=O)NCC3CCC(C(=O)NCc4ccccn4)CC3)cc2CC1C (configuration not stated),-4,101,99,-29
CC(C)N1C/C(=C\c2ccc(N3CCOCC3)cc2)C(=O)/C(=C/c2ccc(N3CCOCC3)cc2)C1,6,102,105,-30
CCOC(=O)Cn1c(=O)oc2cc(S(=O)(=O)N3c4ccccc4CC3C)ccc21 (configuration not stated),6,99,99,-16
Cc1ccc(NC(=S)NN(C)C)cc1,-12,106,107,20
COc1ccccc1CNC(=O)CNC(=O)Cn1ccc2ccccc2c1=O,-6,103,100,-20
Cc1ccc(C)c(NC(=O)C2CC(O)CN2C(=O)OC(C)(C)C)c1 (configuration not stated),.,105,109,-8
CCCn1c(SCC2CCCCO2)nc2ccccc21 (configuration not stated),10,105,110,-8
CSCc1ccc(C(=O)NCc2ccccc2)cc1,-9,.,.,-23
COc1ccc(CNC(=O)C(C)OC(=O)c2ccccc2)cc1 (configuration not stated),-29,101,108,1
O=C(NC1c2ccccc2Oc2ccccc21)c1cccnc1,-9,102,107,.
CCN1CCCC1CNC(=O)Nc1cn(CC(C)C)c(=O)c2ccccc12 (configuration not stated),-28,100,102,-10
N#CC1=C(N)NC(SCc2ccccc2)=C(C#N)C12CCCCC2,.,103,103,-16
Cn1c(CO)nc2ccccc21,-10,102,102,-13
CCNc1nc(NCC)nc(Nn2cnnc2)n1,-12,100,100,-17
CC(Oc1ccc(-c2ccc(C#N)cc2)cc1)C(N)=O (configuration not stated),124,103,109,-13
Cc1cc(OC(=O)c2cccs2)c2c3c(c(=O)oc2c1)CCC3,3,102,104,0
CCc1ccc(CN2CCN(C(=O)c3ccccc3)CC2)cc1,.,96,100,-11
CN(C)S(=O)(=O)c1ccc(C(=O)OCc2nc3ccccc3c(=O)[nH]2)cc1,-8,102,100,-21
CC1CC(C)CN(C(=O)Cn2c(=O)oc3ccccc32)C1 (configuration not stated),-4,.,.,4
Cc1nnc(SCC(=O)N(C)C2CCS(=O)(=O)C2)n1Cc1ccccc1 (configuration not stated),-24,101,109,-11
CCSC(SCC)=C(C#N)C(=O)Nc1ccccc1,-4,101,100,-18
O=C(c1cc2c(=O)n3ccccc3nc2s1)N1CCCC1,107,105,104,-53
COc1ccccc1NC(=O)C(NS(=O)(=O)c1cccc2nsnc12)c1ccccc1 (configuration not stated),4,100,103,-9
Cc1ccc(C)c(NS(=O)(=O)c2ccccc2)c1,.,107,107,-22
CC(CC(=O)NCC1CCCO1)c1ccccc1 (configuration not stated),-11,102,106,-24
COc1ccc(NC(=O)Nc2ncn(Cc3cccc(C(F)(F)F)c3)n2)cc1OC,-6,100,103,-2
COc1ccc(CNC(=S)NN)cc1,-10,102,108,-6
CC(NC(=O)C1CCC1)c1ccc2c(c1)OCO2 (configuration not stated),-14,101,103,-7
CON(C)S(=O)(=O)c1cccc(C(=O)N2CCN(S(=O)(=O)c3ccccc3Br)CC2)c1,10,107,95,3
C[C@H]1NC(=O)NC1=O,-4,102,99,-10
S=C1NC(=S)NC(c2ccc(Br)cc2)N1,26,99,101,-9
O=C(NCC1COC2(CCCCC2)O1)Nc1ccccc1 (configuration not stated),-4,107,105,-14
CSc1nn2c(=O)c(-c3ccccc3)nnc2s1,29,101,100,-5
O=c1c2c(nc(SCCO)n1C1CCCC1)-c1ccccc1CC21CCCC1,-23,101,102,13
Cc1[nH]c2ccc(C(=O)NCCCN3CCN(c4ccccc4F)CC3)cc2c1C,-68,100,102,1
Nc1cc(=O)n(-c2ccccc2)[nH]1,.,103,104,-89
CCOC(=O)CC(=O)c1ccn(C)n1,.,105,108,5

# Single records, from the list above. Order of screens: Mtb MbtI inh | Polio RdRp inh | Polio RdRp inh intensity | MenB inh
# COc1ccc(NC(=O)Nc2ncn(Cc3cccc(C(F)(F)F)c3)n2)cc1OC reads -6 | 100 | 103 | -2
# O=C(NCC1COC2(CCCCC2)O1)Nc1ccccc1 (configuration not stated) reads -4 | 107 | 105 | -14
# COc1ccccc1NC(=O)C(NS(=O)(=O)c1cccc2nsnc12)c1ccccc1 (configuration not stated) reads 4 | 100 | 103 | -9
# CSc1nn2c(=O)c(-c3ccccc3)nnc2s1 reads 29 | 101 | 100 | -5
# CON(C)S(=O)(=O)c1cccc(C(=O)N2CCN(S(=O)(=O)c3ccccc3Br)CC2)c1 reads 10 | 107 | 95 | 3

# Laid out differently: entries from further up
# Every second line gives: Mtb MbtI inh, Polio RdRp inh, Polio RdRp inh intensity, MenB inh
- CC(=O)N1c2ccc(S(=O)(=O)NCC3CCC(C(=O)NCc4ccccn4)CC3)cc2CC1C (configuration not stated)
  -4, 101, 99, -29
- Cc1[nH]c2ccc(C(=O)NCCCN3CCN(c4ccccc4F)CC3)cc2c1C
  -68, 100, 102, 1
- C[C@H]1NC(=O)NC1=O
  -4, 102, 99, -10

# The list goes on.
SMILES,Mtb MbtI inh,Polio RdRp inh,Polio RdRp inh intensity,MenB inh
O=C(Nc1cccnc1)c1cccc(S(=O)(=O)N2CCc3ccccc32)c1,-13,102,107,-34
CCn1cc(C(=O)N(C)c2ccc(OC)cc2)c2cc(OC)c(OC)cc2c1=O,0,103,101,-15
COc1ccc(N2C(=O)CC(SCC(=O)O)C2=O)cc1 (configuration not stated),3,102,107,7
O=C(NC1CCCCC1)N1CCN(c2ccccn2)CC1,71,101,102,-24
Cc1cc(NC(=O)Cc2c(C(=O)O)nnn2-c2ccc(Br)cc2)no1,8,101,102,-11
CC1(C)Cc2c(c(=S)nc(-c3ccccc3)n2CCO)CO1,0,103,103,-54
O=C(Cc1ccsc1)OCC(=O)c1ccccc1,-9,102,105,.
Cc1cc(C(=O)Cn2cnc3sccc3c2=O)c(C)n1CCc1ccc(Cl)cc1,30,101,106,-2
Nc1nc(CSCC(=O)NCc2ccco2)nc(Nc2ccccc2)n1,-4,113,130,1
S=c1nc(-c2ccccc2)[nH]n1CN1CCc2ccccc2C1,96*,99,94,-13
Cc1cc(Nc2ccc(F)cc2)nc(SCc2c(Cl)cccc2Cl)n1,-4,107,94,-42
Cc1ccc2nc(NCCC(=O)O)nc(-c3ccccc3)c2c1,-20,102,98,-23
Brc1ccccc1[C@@H]1Nc2ccccc2[C@@H]2C=CC[C@@H]21,9,103,109,-21
O=Nc1c(-c2c(O)[nH]c3ccccc23)[nH]c2ccccc12,0,100&95,102&86,-8
Cc1ccc(C(=O)NC(C)C(C)(C)C)o1 (configuration not stated),-6,99,101,5
O=S(=O)(c1ccc2c(c1)OCO2)N1CCOCC1,-4,107,101,-20
OCc1cccn1-c1ccc(I)cc1,-1,100,99,-22
CN(C)S(=O)(=O)c1cccc(CSc2nnc(C(F)(F)F)n2C)c1,7,99,102,-2
COc1cccc2c1Oc1nc(-c3ccccc3)nc(SC(F)F)c1C2,1,101,102,-20
CC1CCCC(NC(=O)c2ccccc2)C1C (configuration not stated),-9,103,108,-8
O=C(c1ccccc1)c1cc2ccccc2oc1=O,17,101,105,13
Brc1ccc(-c2cnc(/C=C/C=C/N3CCOCC3)s2)cc1,3,150,168,-1
CN(C)C(Cc1cccc(S(=O)(=O)N2CCOCC2)c1)C(=O)c1ccccc1 (configuration not stated),-52,104,107,-1
CCC1(C)C(C#N)(C#N)C1(C#N)C#N,-4,101,101,-44
O=C(O)c1cc(-c2cccc(O)c2)c2c(-c3ccccc3)[nH]nc2n1,2,102,98,-7
OCCn1c(SCCOc2ccccc2)nc2ccccc21,-5,98,104,-85
O=C(CCN1C(=O)c2ccccc2S1(=O)=O)Nc1ccc2c3c(cccc13)CC2,1,99,96,-5
CCCCn1c(=NC(C)=O)c(C#N)cc2c(=O)n3cccc(C)c3nc21,13,103,106,-47
CSc1nc(C)cc(ON=C(C)C)n1,-5,100,102,-21
CCOC(=O)C1=C(CN2CCCc3ccccc32)NC(=O)NC1c1ccccc1 (configuration not stated),-10,105,101,-38
COc1ccc(-c2noc(CC(=O)N3CCC(C)CC3)n2)cc1,-2,104,98,3
CCN(C(=O)c1cn(CC)c(=O)c2cc(OC)c(OC)cc12)c1cc(C)ccc1C,9,101,102,10
CN(C)c1ccc(N=Cc2nc(-c3ccccc3)oc2OC(=O)c2ccccc2)cc1,-7,97,122,-1
COc1cc(N)ccc1-n1c(C)ccc1C,1,103,103,-6
Nc1nnc(CSc2cccc3cccnc23)o1,.,103,102,-2
CNC(=O)CSc1c(-c2cccs2)[nH]c2ccccc12,.,108,113,-4
COc1ccc(-c2cc3n(n2)CCc2nc4ccccc4n2-3)cc1,161,99,88,-7
CCOC(=O)N1CCC(NC(=O)c2snnc2C)CC1,-1,107,113,9
S=C(NCCc1ccc(Cl)cc1)NCc1ccco1,7,100,103,-18
Cc1cc(NC(=O)NC(=O)c2ccc(F)cc2)n[nH]1,.,100,108,-2
COc1cc(Cl)c(C(F)(F)F)cc1NC(=O)c1c(OC)cccc1OC,-15,107,109,-22
Cc1ccc(N2C(=O)C3CN4CCCN4C3C2=O)cc1 (configuration not stated),0,102,103,27
Cc1ccc(N=C2C(=O)N(CN(C)C)c3ccccc32)cc1,3,100,101,-25
O=C1C=CC(=O)C(c2ccc(Cl)cc2)=C1,-35,101,103,11
COc1ccc(C2C(C(N)=O)C2(C#N)C#N)cc1 (configuration not stated),.,98,107,-5

# 3 structures out of the list, ordered by molecular weight, rising:
SMILES,Mtb MbtI inh,Polio RdRp inh,Polio RdRp inh intensity,MenB inh
Cc1cc(NC(=O)NC(=O)c2ccc(F)cc2)n[nH]1,.,100,108,-2
Cc1ccc(N=C2C(=O)N(CN(C)C)c3ccccc32)cc1,3,100,101,-25
CCN(C(=O)c1cn(CC)c(=O)c2cc(OC)c(OC)cc12)c1cc(C)ccc1C,9,101,102,10

# New compounds follow
SMILES,Mtb MbtI inh,Polio RdRp inh,Polio RdRp inh intensity,MenB inh
O=C(O)C1=Nc2cccc3cccc(c23)N1,26,102,95,.
O=C1CC(N2CCN(c3ccc(O)cc3)CC2)C(=O)N1c1ccc(Cl)c(C(F)(F)F)c1 (configuration not stated),12,101,99,-58
Fc1ccc(N=Cc2cccnc2)cc1F,5,102,101,15
CC1=CC(C)=N[N+]1(C)CC(O)COc1ccccc1 (configuration not stated),11,98,93,-21
CS(=O)(=O)N(CC(=O)Nc1cccnc1)c1ccc(Cl)cc1,-2,99,100,-49
O=C(CC1SC(=O)N(Cc2ccccc2)C1=O)Nc1nccs1 (configuration not stated),-6,103,108,-30
COc1cccc(CNc2nn[nH]n2)c1OCc1ccc(Cl)cc1,-14,101,100,-13
CCc1nnc2sc(NC(=O)c3ccco3)nn12,-3,101,105,-19
CCCCC(=O)Nc1noc2ccccc12,2,104,105,-8
COc1ccc(C=Nc2n[nH]c(Nc3ccccc3)c2-c2nnc3n2CCCCC3)cc1,-11,101,100,-4
CCOc1cc2[nH]c(=O)n(CCC(=O)NC3CCCC(C)C3C)c(=O)c2cc1OCC (configuration not stated),-9,101,102,-12
C=CCn1c(COc2ccc(CC)cc2)nnc1SCC(=O)c1cc2ccccc2o1,-5,101,98,-33
c1ccc2oc(C3=NNC(=NCCN4CCOCC4)SC3)cc2c1,70,104,112,-91
COc1ccc(OCc2cc(=O)n3nc(C)sc3n2)cc1,9,99,96,6
Nc1cc(N)nc(SCc2ccccc2C(F)(F)F)n1,0,101,106,-5

# The order is random. Share with any hit: about 1.8%.
